Screens (PubChem)
GLA inh pH 4.5 = qHTS Assay for Inhibitors of Human alpha-Galactosidase at pH 4.5; Alpha-galactosidase A (Homo sapiens), P06280; purified enzyme, 4-MU-alpha-Gal fluorescence, pH 4.5; activity change, negative = inhibition, % at 105 µM; 230,000 tested, under 10 active; AID 1467, 2008; inconclusive = small, poorly fitted or top-dose-only inhibition, or a rising curve; inactive = flat fitted curve, though single readings scatter; no compound was filed as active;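 also: 0% = full activity with enzyme and -100% = basal without enzyme; dose as in the result columns while the protocol names 77 µM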
Target sequence (P06280 whole entry, looked up): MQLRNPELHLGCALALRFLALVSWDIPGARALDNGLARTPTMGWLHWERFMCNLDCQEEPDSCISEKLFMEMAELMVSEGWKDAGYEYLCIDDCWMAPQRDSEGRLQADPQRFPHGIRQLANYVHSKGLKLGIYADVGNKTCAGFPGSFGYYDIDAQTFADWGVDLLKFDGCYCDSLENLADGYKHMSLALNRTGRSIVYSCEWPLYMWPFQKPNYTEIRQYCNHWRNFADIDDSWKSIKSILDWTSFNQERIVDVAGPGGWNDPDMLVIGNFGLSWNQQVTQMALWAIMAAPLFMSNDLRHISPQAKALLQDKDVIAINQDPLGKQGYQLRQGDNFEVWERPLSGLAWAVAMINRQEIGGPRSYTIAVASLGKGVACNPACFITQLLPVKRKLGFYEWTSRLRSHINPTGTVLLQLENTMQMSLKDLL
miR-21 FLuc = qHTS Assay for Modulators of miRNAs and/orActivators of miR-21. HeLa miR-21 FLuc reporter, luciferase, 48 h. Potency, µM (doses to about 38.3 µM), inactives show at the highest dose reporter change, positive = more light. 340,000 tested, under 10 active; active = well fitted rising curve with a large enough effect; inconclusive = small, poorly fitted or top-dose-only effect; inactive = no such curve, though single readings can be large or run the other way;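 also: % of control where 0% means no effect; miR-21 action dims this reporter so a rising signal means less miR-21 action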
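HeLa miR-21-FLuc reporter line, endogenous miR-21; 2000 cells/well in DMEM/10% FBS; compound titration up to ~40uM final, 48 h, 37 degree Celsius; luciferase detection reagent, 15 min lysis, CCD luminescence.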
Rango-impB inh = qHTS Assay for Inhibitors of Rango (Ran-regulated importin-beta cargo) - Importin beta complex formation. 340,000 compounds, 0.031% hits. Rango CFP/YFP FRET sensor + importin beta, 45 min. Potency, µM (doses to about 92.2 µM), for the others: at the top dose inhibition of complex formation. Importin subunit beta-1 (Homo sapiens), Q14974; active = rising FRET ratio curve, often small or poorly fitted; inconclusive = mostly compound fluorescence or quenching in the first reads; inactive = flat curves in all reads;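 also: potency is read from the fitted curve at half-maximal effect; 0% = DMSO wells and 100% = buffer wells lacking importin beta; nearly all actives have a fitted effect of over 15% in size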
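Inhibition scored from the CFP 486 nm/YFP 530 nm FRET ratio 45 min after adding 0.125 microM importin beta to 50 nM Rango biosensor preincubated 5 min with compound (room temperature, PBS with DTT, Tween-20, BSA). No-importin wells as positive control.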
Rango dissoc inh = qHTS Assay for Inhibitors of RanGTP induced Rango (Ran-regulated importin-beta cargo) - Importin beta complex dissociation. Biochemical FRET Rango-importin beta, RanGTP-induced dissociation. Snurportin-1 (Homo sapiens) + GTP-binding nuclear protein Ran (Homo sapiens) + Importin …. AID 540253, 2011. Potency, µM (highest dose often 46.1 µM), inactives show at the top dose activity change, negative = inhibition. 340,000 compounds, 0.071% hits; active means falling FRET ratio curve, often poorly fitted, with flat reads before Ran was added; inconclusive means other falling curves, or compound fluorescence or quenching; inactive means flat or rising ratio curve;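 also: potency is read from the fitted curve at half-maximal effect; % of control where 0% means no effect; nearly all actives have a fitted effect of over 45% in size; -100% = wells without RanGTP and RCC1; the record marks most hits as doubtful in a second field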
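Compounds preincubate 5 min with complex of recombinant Rango and importin beta in PBS with 1 mM DTT. Ran (0.6 uM) loaded with 2 mM GTP plus 0.2 uM RCC1 starts dissociation; FRET is recorded 45 min later.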
Active calls of the source: *; ? = inconclusive; . = not tested or not shown; & = joins results of further samples; [ ] = another dose, or the depositor's remark.

GLA inh pH 4.5	miR-21 FLuc	Rango-impB inh	Rango dissoc inh	Structure
.	.	5.0%	9.2%	O=C(NC1CCC(O)CC1)c1cc(-c2ccc(Cl)cc2)nc2ccccc12 (centres undefined)
-8.6	1.4%	4.8%	-5.4%	CCOC(=O)c1c(N)n[nH]c1-c1ccc(OC)cc1
-10.5	-4.6%	?	9.1%	CCc1cc(CC)c(/C=N/NC(N)=O)c(CC)c1/C=N/NC(N)=O
-6.6	-4.7%	?	8.7%	CC1=C(C(=O)N(C)C)C(c2cccc(Cl)c2)NC(=O)N1 (centres undefined)
2.0	-2.1%	-0.5%	-4.8%	CCOC(=O)CSc1nnc(CSc2nc3ccccc3s2)n1C
.	-40.2%	-0.2%	-2.8%	CCc1ccccc1NC(=O)c1cc(-c2ccco2)on1
-6.6	-9.1%	2.9%	-14.9%	c1ccc(-n2c(Sc3cnccn3)nnc2-c2cccs2)cc1
-0.8	7.6%	-1.7%	-15.2%	COc1cc(NC(=O)CSc2cc(C)c3cc(C)cc(C)c3n2)c(C(=O)O)cc1OC
-7.8	-10.7%	-2.1%	-7.6%	Cc1c(Cl)c([N+](=O)[O-])nn1CCCC(=O)Nc1cccc(Cl)c1
.	.	-2.7%	1.7%	COc1cc(Cl)c(CNC[C@H]2O[C@@H](n3ccc(=O)[nH]c3=O)[C@H](O)[C@@H]2O)c(Cl)c1O
-13.3	-3.7%	3.8%	-0.3%	Cc1cc(/C=N/NC(=O)C(=O)NCc2ccccn2)c(C)n1-c1cccc(Br)c1
12.6	-25.9%	-3.0%	-7.5%	Cc1cnc(-c2nnc(N(C)C(=O)c3cccnc3)s2)cn1
-16.6	1.2%	-1.8%	0.0%	Cc1ccccc1N=Cc1cc2c(cc1[N+](=O)[O-])OCO2
-0.3	-0.7%	-3.8%	10.8%	COc1ccc(NC(=O)CSc2nc3c(c(=O)n2-c2ccc(F)cc2)SCC3)cc1
-7.9	26.2%	-0.1%	-12.1%	O=C(NNC(=O)c1cccnc1SCc1cccc([N+](=O)[O-])c1)c1ccc(F)cc1
7.0	-1.6%	-0.7%	23.6%	C#CCOCCOCCOCCNc1nc(N2CCN(C(=O)[C@H]([C@@H](C)CC)n3cc([C@@H](N)CC(C)C)nn3)CC2)nc(N2CCN(C(=O)[C@H](CCCCN)n3cc([C@@H](N)CO)nn3)CC2)n1
5.9	-0.2%	0.6%	-3.0%	COc1ccc(NC(=O)Cn2c(=O)n(Cc3ccco3)c(=O)c3ccccc32)cc1
2.0	14.2%&19.0%	-3.4%	14.9%	COc1cc(NC(=O)Cn2nc(C(F)(F)F)c3c2CCCC3)cc(OC)c1OC
5.2	-2.9%	-1.0%	15.0%	O=C(CCSCc1ccccc1Cl)NCc1cccs1
-0.9	0.2%	-4.9%	-6.4%	C=CCn1c(=O)c2ccccc2n2c(SCC(=O)Nc3sc(C(=O)N(CC)CC)c(C)c3C(=O)OCC)nnc12
.	0.1%	0.2%	1.4%	COc1ccccc1N1CCN(S(=O)(=O)c2ccc3c(c2)NC(=O)C(C)C(=O)N3)CC1 (centres undefined)
-8.4	-2.2%	-1.1%	-23.2%	CC(C)(C)c1ccc(C(=O)N2CCN(c3nc4ccccc4o3)CC2)cc1
-1.9	-7.7%	0.5%	-13.7%	CCCN1C2CCCC1CC(NC(=S)Nc1cccc(C)c1C)C2 (centres undefined)
.	.	-5.1%	14.6%	CNC(=O)c1ccc(NC(=O)Cc2ccc(S(=O)(=O)N3CCOCC3)s2)cc1
1.8	12.6%	?	-21.0%	N#C/C(=C(/O)COC(=O)COc1cccc(Br)c1)c1nc2ccccc2[nH]1
.	-1.6%	-1.4%	-0.8%	COC(=O)c1ccc(COc2ccc(C(=O)c3ccccc3)cc2)o1
2.3	0.9%	4.4%	0.8%	O=C(NC1CCCC1)C1CCC(=O)N1CCc1ccccc1 (centres undefined)
4.3	-59.7%	-0.7%	9.6%	Cn1cc([N+](=O)[O-])c(C(=O)Nc2ccc(C3CCCCC3)cc2)n1
11.6	-14.1%	3.9%	14.1%	CCCn1nc(Oc2nc(NCC)nc(NC(C)C)n2)ccc1=O
0.7	2.6%	-2.3%	0.5%	CN1CCN(S(=O)(=O)c2ccc(N3CCN(C(=O)c4ccccc4)CC3)nc2)CC1
-13.9	-3.0%	?	16.5%	O=C(NNS(=O)(=O)c1ccc(Br)cc1)c1csnn1
.	-3.8%	3.0%	-0.9%	CCCN1CCN(CCCNC(=O)c2cc3c(=O)oc4ccc(C)cc4c3s2)CC1
-1.5	-0.3%	2.8%	6.2%	CCOc1ccc(NC(=S)NN2CCN(C)CC2)cc1
-0.5	-1.4%	7.5%	-11.8%	O=C(COc1ccc(Cl)cc1)OCC(=O)N1CCCC1
.	-9.4%	-0.9%	-11.2%	CCN1CCN(c2cc(C)c3cc(NC(=O)c4ccc(C)c(C)c4)ccc3n2)CC1
1.8	21.8%	0.6%	3.4%	COc1cccc(C(=O)Nc2nnc(-c3ccc(F)cc3)o2)c1
.	.	0.7%	0.6%	CN(CC(=O)Nc1ccc(F)cc1)C(=O)COC(=O)CNC(=O)c1sc2ccccc2c1Cl
-2.3	0.0%	-0.4%	-6.4%	CCOc1ccc(=O)n(-c2ccccc2)n1
.	.	0.2%	-15.6%	O=C(COC(=O)c1ccc2c(c1)OCO2)Nc1ccccc1F
-2.3	2.0%	-1.3%	-3.7%	Cc1ccc(C2=NC3(CCCC3)N=C2SCC(=O)Nc2ccc3c(c2)OCCO3)cc1
-3.4	13.4%	2.5%	-3.6%	Fc1cccc(NC(=S)NCc2ccc(Cl)cc2)c1
-3.9	-1.4%	-2.1%	11.4%	CN(C)S(=O)(=O)c1ccc(C(=O)N(c2ccccn2)c2ccccn2)cc1
10.7	-0.5%	-2.4%	-9.4%	O=C(NCCc1ccccc1)C(=O)NCC1OCCN1S(=O)(=O)c1ccccc1 (centres undefined)
6.0	0.7%	0.2%	-10.9%	Cc1cc2nnc(SCC(=O)N3C(C)CCCC3C)n2c(N)n1 (centres undefined)
.	0.7%	7.4%	40.2%	O=C(N/N=C\c1ccc([N+](=O)[O-])s1)C1COc2ccccc2O1 (centres undefined)

Limited to miR-21 FLuc, for 2 of the compounds above:
molecule	miR-21 FLuc
Fc1cccc(NC(=S)NCc2ccc(Cl)cc2)c1	13.4%
COc1cccc(C(=O)Nc2nnc(-c3ccc(F)cc3)o2)c1	21.8%

Next section:
GLA inh pH 4.5	miR-21 FLuc	Rango-impB inh	Rango dissoc inh	Structure
.	-1.4%	-1.5%	35.5%	O=[N+]([O-])c1cnc(Nc2ccccc2)nc1Nc1ccccc1
-4.6	-1.6%	-2.6%	-4.3%	CN1CCN(C(=O)c2cc3nc(-c4ccc(Cl)cc4)cc(C(F)(F)F)n3n2)CC1
0.2	-2.5%	2.5%	-3.8%	CC1CCN(C(=O)c2ccc(S(=O)(=O)Cc3cccc(F)c3)c([N+](=O)[O-])c2)CC1
-3.3&0.2	.	0.1%	-2.3%	S=C(S)N1CCCC1
-0.1	-11.5%	-1.7%	-0.4%	COc1ccc([N+](=O)[O-])cc1NC(=O)CCN1CCN(c2ccccc2OC)CC1
1.1	2.8%	-3.3%	-7.6%	CC1(C(=O)NCc2ccc(F)cc2)Oc2ccccc2NC1=O (centres undefined)
.	.	1.0%	-0.5%	CCN(CC)C(=O)[C@H]1CC(CC(=O)NCc2ccc(OC)c(OC)c2)C(=O)N2CCc3c([nH]c4ccccc34)[C@]12C (some centres undefined)
0.7	-13.3%	2.7%	-4.1%	COc1cccc(NC(=O)CSc2nncn2N)c1
.	-5.6%	-0.1%	6.6%	CC(NC(=O)c1ccc(S(=O)(=O)N(C)C)cc1)c1ccc(-n2ccnc2)cc1 (centres undefined)
.	-46.4%	0.1%	-13.8%	Cn1cc(C=O)c(-c2ccc3c(c2)OCCCO3)n1
-3.9	-8.2%	-1.1%	-4.4%	Cc1cc(NC(=O)CSc2nnc(-c3ccncc3)n2N)ccc1Br
.	0.8%	2.5%	-0.2%	Cc1ccc(-n2ncc3c2CC(C)(C)CC3NC(=O)Cc2c(C)noc2C)cc1 (centres undefined)
-5.9	?	-0.4%	7.0%	O=C(Nc1ccc(N2CCN(C(=O)c3ccc(Cl)cc3)CC2)cc1)c1ccc(Br)o1
-9.9	-1.1%	2.1%	7.9%	CCn1c(SC)nnc1-c1nn(-c2ccccc2)ccc1=O
6.1	-4.7%	0.2%	-0.4%	CC(C)OC(=O)CC1C(=O)NCCN1C(=S)NC(=O)c1ccccc1Cl (centres undefined)
?	-6.9%	4.3%	-16.1%	O=C(NC(NC(=S)Nc1cccc(C(=O)O)c1)C(Cl)(Cl)Cl)OCc1ccccc1 (centres undefined)
.	-0.1%	-3.8%	-8.9%	COc1cc(NC(=S)NCCCN2CCOCC2)c(OC)cc1NC(=O)c1ccco1
1.4	0.0%	8.6%	3.6%	Cc1cc(NC(=O)CSc2nnc(Cc3ccccc3)n2C)no1
.	.	?	?	CCc1ccc(C(=O)NNC(=O)c2cccc(S(=O)(=O)N3CCN(C)CC3)c2)cc1
.	.	2.9%	45.7%	O=C(NCCOc1ccccc1F)C1CC(=O)N(c2ccc3c(c2)OCCO3)C1 (centres undefined)
5.2	0.3%	-4.3%	5.7%	N=c1c[n+](N2CCOCC2)[n-]o1
?	17.4%	3.6%	6.0%	CC(C)Oc1ccc(/C=C(\NC(=O)/C=C/c2ccco2)C(=O)NCCc2nc3ccccc3[nH]2)cc1
7.1	-6.7%	-0.5%	2.4%	O=C(COC(=O)c1ccco1)Nc1ccc2c(c1)OCCO2
7.0	18.2%	-3.4%	0.1%	CC(C)C(=O)NCCc1nc2ccccc2n1CCCOc1ccc(Cl)cc1
0.7	6.7%	-0.9%	25.0%	COC(=O)C(NC(C)=O)(Nc1cc(C)ccn1)C(F)(F)F (centres undefined)
.	.	-0.9%	7.7%	CN(CC(=O)NC1CCCC1)S(=O)(=O)c1cccc(Cl)c1
.	-2.5%	-4.3%	22.1%	CCCN[C@@H]1C(=O)N2C(C(=O)OCCC)=C(C)CS[C@H]12
9.1[21.1 µM]	-2.0%	7.1%	-2.0%	CC(=O)Oc1ccc(C2(C)CC(C)(C)NC(=S)N2C)c(OC(C)=O)c1 (centres undefined)
.	-4.5%	-1.1%	8.1%	CCN(CC)S(=O)(=O)c1ccc(-n2cnc3cc(C)c(C)cc32)nc1
.	11.3%	0.1%	7.8%	CC(C)(C)n1nc2c(c1NC(=O)C1CC(=O)N(c3ccc(Cl)cc3)C1)CS(=O)(=O)C2 (centres undefined)
1.5	-0.3%	?	?	CCSc1nnc(-c2sc3nnc(-c4ccccc4)c(-c4ccccc4)c3c2N)o1
0.0	-1.6%	-0.2%	10.8%	CCOC(=O)c1[nH]c(C)c(C(=O)OCC(=O)N2CCCCC2C)c1C (centres undefined)
.	.	?	-8.2%	Cc1ccc(COC(=O)c2cccc(S(=O)(=O)N3CCCCCC3)c2)cc1
.	-0.1%	0.8%	20.7%	COc1ccc(CCNC(=O)CC(Cc2ccccc2)C(=O)O)cc1OC (centres undefined)
-7.2	-58.5%	0.3%	-0.2%	COc1cccc(Nc2nnc(SCc3nc4ccccc4s3)s2)c1
-0.3	-5.1%	0.0%	20.7%	Cc1cccn2cc(CCNS(=O)(=O)c3ccc4c(c3)OCCO4)nc12

A portion of the library (hit frequency here may not be typical).
